Bioassay records: PubChem BioAssay, Center for Chemical Genomics, University of Michigan
CDC25B CDK2 inh = primary biochemical HTRF screen for blockers of M-phase inducer phosphatase 2 binding to CDK2/cyclin A. P30305+P24941. HTRF CDC25B-CDK2/CyclinA binding, anti-His/anti-Flag; stronger effect = higher value. z-score (concentration not given with the values). 94,000 tested, 0.72% active. AID 1259370, 2018;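 also: score is relative to mean and SD of negative controls; strong numbers were not always called active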
HIV TAR-Tat = TAR RNA-Tat peptide displacers, HIV-1, primary screen, biochemical, FRET, FAM/TAMRA-labeled Tat; AID 1259389, 2018; HIV-1 TAR RNA, Tat peptide displacement FRET; stronger effect = higher value; 100,000 tested, 0.6% active; z-score (test concentration not listed);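 also: score is relative to mean and SD of negative controls; some compounds called inactive have numbers as strong as hits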
Active calls of the source: *; x = not tested or not shown.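 The calls were made as follows: active = z-score from 3 up in half or more of its runs; inactive = the rest.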

Molecule,CDC25B CDK2 inh,HIV TAR-Tat
Cc1ccc(NC(=O)C(C)Sc2nc3c(c(=O)[nH]2)CCC3)c(C)c1 (centres undefined),0.81,-1.1
CCOC(=O)/C(C#N)=C/Nc1ncccc1C,-0.51,x
O=C(O)C1=CC(c2ccc(OCc3ccccc3)cc2)n2nnnc2N1 (centres undefined),x,0.5
C=CCSc1nnc(NC(=O)c2snnc2C)s1,-0.89,1.7
Cc1cccc(OCc2nn3c(C4COc5ccccc5O4)nnc3s2)c1 (centres undefined),0.32,0.09
CCSCCOC(=O)C1=C(C)NC2=C(C(=O)CC(c3cccs3)C2)C1c1ccc2c(c1)OCO2 (centres undefined),-1.5,2
Cc1c(NC(=O)c2cnn3c(C(F)(F)F)cc(-c4ccco4)nc23)c(=O)n(-c2ccccc2)n1C,x,2.3
COc1cccc(NS(=O)(=O)c2ccc(OC)c(OC)c2)c1,-0.21,1.2
CC1CCc2c(sc3nc(-c4ccccc4)[nH]c(=O)c23)C1 (centres undefined),-0.43,0.19
O=S(=O)(Cc1ccc(F)cc1)c1ccc2c(c1)S(=O)(=O)N=CN2,x,0.64
CCN(CCCNC(=O)Nc1cn(C)c(=O)c2ccccc12)c1ccccc1,x,0.09
Cc1cn2c(=O)cc(CSc3ccc(Cl)cc3)nc2s1,-2.4,0.96
C=CCSc1ncc(CO)n1Cc1ccc(Cl)cc1,x,0.96
COC(=O)c1ccc([C@@H]2Nc3ccc(C(=O)O)cc3[C@@H]3C=CC[C@@H]32)cc1,0.2,7.4*
Cc1ccccc1CN1C(=O)C(O)(CC(=O)c2ccccn2)c2cc(Cl)ccc21 (centres undefined),2.5,0.27
CCOc1cc(C2c3c(-c4cc(C)ccc4O)n[nH]c3C(=O)N2Cc2cccnc2)ccc1O (centres undefined),0.25,-0.22
N#Cc1ccc(N2CCCN(C(=S)NC3CCCC3)CC2)nc1,-0.13,x
O=C(CN1Cc2ccccc2C1=O)NCCC1=CCCCC1,x,0.34
Cn1ncc2c(NCCCN3CCOCC3)ncnc21,x,1.8
Cn1cnc(S(=O)(=O)NCC2CCN(C(=O)OC(C)(C)C)CC2)c1,-2.4,x
COCCN1C(=O)c2oc3cc(C)c(C)cc3c(=O)c2C1c1ccc(O)cc1 (centres undefined),1.6,0.97
O=C(CSc1nc(-c2ccccc2)nc2cc(=O)[nH]n12)NCC1CCCO1 (centres undefined),x,1.2
Cc1ccc(NC(=O)N2CC(C)Oc3ccc(C)cc32)c(C)c1 (centres undefined),x,0.91
Cc1ccccc1-n1c(C)c(C)c2c1ncn1nc(-c3ccco3)nc21,-0.19,-1.4

Reprinted from the part before: five compounds, followed by the next part.
Molecule,CDC25B CDK2 inh,HIV TAR-Tat
Cn1cnc(S(=O)(=O)NCC2CCN(C(=O)OC(C)(C)C)CC2)c1,-2.4,x
COCCN1C(=O)c2oc3cc(C)c(C)cc3c(=O)c2C1c1ccc(O)cc1 (centres undefined),1.6,0.97
O=C(CSc1nc(-c2ccccc2)nc2cc(=O)[nH]n12)NCC1CCCO1 (centres undefined),x,1.2
Cc1ccc(NC(=O)N2CC(C)Oc3ccc(C)cc32)c(C)c1 (centres undefined),x,0.91
Cc1ccccc1-n1c(C)c(C)c2c1ncn1nc(-c3ccco3)nc21,-0.19,-1.4
CCOC(=O)C1CCCCN1C(=O)c1c(SC)nsc1SC (centres undefined),-1.2,x
NC(CCc1nc2ccccc2[nH]1)C(=O)O (centres undefined),-0.16,-0.18
Fc1ccc(-c2nnc3sc(-c4cnccn4)nn23)cc1,-0.71,1.9
C=CCSc1nnc(NC(=O)Cc2coc3ccc(C)cc23)s1,-0.79,2.4
Cc1cc(C(=O)Nc2cc(C(F)(F)F)ccc2N2CCOCC2)no1,-1.3,x
C=CCN1C(C(=O)c2ccccc2)=C(OC(=O)c2ccc(Cl)cc2)c2ccccc2S1(=O)=O,-2.5,x
CN1CCN(CCCNC(=O)c2c(N3CCCC3=O)c3cc(F)ccc3n2C)CC1,x,-1.6
CCN(Cc1ccccc1)C(=O)CCCC1=NS(=O)(=O)c2ccccc2N1,x,1
COc1ccc2c(c1)NC(c1cccs1)=NC(c1cccs1)=N2,-0.23,0.05
Cc1nn(CC(=O)N2C(C)CCCC2C)c(=O)c2cc3occc3n12 (centres undefined),-1,2.7
CCOC(=O)c1c(S(=O)(=O)N2CCCC(C(=O)OCC)C2)c(C)n(C)c1C (centres undefined),x,3.4
Cc1nonc1NC(=O)c1ccc(C(C)(C)C)cc1,-1.5,1.4
CCCN1CCN(c2c(-c3ccc(C(C)C)cc3)c(=O)c2=O)CC1,x,1.8
COc1cc(OC)nc(/N=C/c2nc(-c3ccccc3)oc2O)n1,-1.9,x
CCc1nc(-c2ccccc2)c2ccccn12,-1.4,x
Cc1csc(NC(=O)c2c(O)c3cccc4c3n(c2=O)CCC4)n1,x,0.4
CCCNC(=O)N1[C@H](c2ccc(C)s2)[C@@H](C)C(=O)[C@@H](C)[C@@H]1c1ccc(C)s1,-0.86,-0.17
CC1(C)CC(=O)C(C2(O)C(=O)Nc3ccccc32)CO1 (centres undefined),-0.72,0.81
O=C(CSc1nc2ccccc2c(=O)[nH]1)NCCc1nc2ccccc2[nH]1,x,1.3
CC(C)(C)S(=O)(=O)c1cnc(-c2cnccn2)nc1N,-3.5,x
CN(Cc1nc(-c2ccccn2)no1)S(=O)(=O)c1ccccc1,-1.7,0.48
O=C(CSc1cn(CC(=O)N2CCOCC2)c2ccccc12)NCC1CCCO1 (centres undefined),x,0.42
O=S(=O)(NCCc1csc(-c2ccc(Cl)cc2)n1)c1ccccc1,x,-0.74
CCOc1ccc(Nc2nc3ccccc3c(=O)s2)cc1,-8.4,0.12

Overlap with the part before: 5 compounds; new compounds follow.
Molecule,CDC25B CDK2 inh,HIV TAR-Tat
CC(C)(C)S(=O)(=O)c1cnc(-c2cnccn2)nc1N,-3.5,x
CN(Cc1nc(-c2ccccn2)no1)S(=O)(=O)c1ccccc1,-1.7,0.48
O=C(CSc1cn(CC(=O)N2CCOCC2)c2ccccc12)NCC1CCCO1 (centres undefined),x,0.42
O=S(=O)(NCCc1csc(-c2ccc(Cl)cc2)n1)c1ccccc1,x,-0.74
CCOc1ccc(Nc2nc3ccccc3c(=O)s2)cc1,-8.4,0.12
S=c1[nH]c(-c2ccccc2)c(-c2ccccc2)o1,-2.6,x
Fc1ccccc1Nc1ncnc2onc(-c3cccc(Cl)c3)c12,-0.87,0.44
O=C(CC(=O)Nc1ccc(F)cc1Cl)Nc1ccc2nc3n(c(=O)c2c1)CCCCC3,-0.38,1.2
CN(C)CCN(C(=O)C1COc2ccccc2O1)c1nc2c(F)cccc2s1 (centres undefined),x,1.9
CN1CCN(CC(=O)N2c3ccccc3Sc3ccc(Cl)cc32)CC1,-0.37,0.42
O=C(NCC1CCCO1)c1ccc(-c2ccsc2)cc1 (centres undefined),x,0.95
CCn1cnc2cc(NS(=O)(=O)c3ccc(C)cc3)ccc21,-0.52,1.1
CSc1cccc(NC(=O)CN2N=NC3C(=O)N(c4ccc(F)c(F)c4)C(=O)C32)c1 (centres undefined),x,-0.34
COc1ccc(N2CCN(S(=O)(=O)c3ccc4c(c3)OCCO4)CC2)cc1,-1.6,x
O=C(NC1CCCC1)C1=Cc2sc3c(c2CS1)CCCC3,x,-0.2
CC(=O)O[C@H]1CC[C@]2(C)C3CC[C@@]4(C)C(CC5O[C@@]6(CCC(C)CO6)[C@@H](C)C54)C3CC[C@H]2C1 (some centres undefined),x,1.8
COC(=O)c1sc(OC)cc1OC(=O)c1ccco1,-1.8,x
O=C(Nc1ncc(Cc2ccccc2Cl)s1)c1cc2ccccc2c(=O)s1,-1.5,1.2
O=C(O)/C=C\C(=O)NCC(=O)O,1.9,x
CCCCc1nc2ccccc2n1CC(=O)O,-1.7,1.9
C=C(C)c1cccc(C(C)(C)NC(=O)N2CCN(c3ccccn3)CC2)c1,-0.64,0.22
COC(=O)c1sc2nc(N3CCOCC3)c3c(c2c1N)CCCC3,0.27,x
O=C(/C=C/C(=O)c1ccc(F)cc1)c1ccc(F)cc1,-0.93,x
COc1ccc2sc(N(CCCN(C)C)C(=O)c3nc4ccccc4s3)nc2c1,x,0.97
CCOc1ccc(-c2cccc(NS(=O)(=O)c3ccc4c(c3)OCCO4)c2)nn1,x,0.16
c1ccc(CNCCSc2nnnn2-c2ccccc2)cc1,-0.87,1.2
CC1=C(c2ccc(C)cc2)S(=O)(=O)N=C1N1CCN(c2ccccn2)CC1,-2.1,2.2
CC(C)CCNC(=O)C1CCN(c2nnc(-n3cccc3)s2)CC1,-0.69,0.96
Cn1c(CNc2ccc(F)cc2)nc2ccccc21,1.5,-3.2
CC1CCC(NC(=O)CCCn2c3ccccc3c3cn[nH]c(=O)c32)CC1 (centres undefined),0.21,-0.61
Cc1ccccc1-n1nnnc1C1(N2CCOCC2)CCCC1,x,0.43
COc1cccc(-c2nc(CSc3nc4ncccc4[nH]3)c(C)o2)c1OC,x,1.5
Cc1ccc(-n2cc3c(c2-c2cccc(Br)c2)c(=O)n(C)c(=O)n3C)c(N)c1,0.01,1.4
COc1ccc(Cl)cc1NC(=O)N1CCN(c2nc3cc(F)ccc3n3cccc23)CC1,x,-0.33
COc1ccc(-c2cc(-c3ccccc3)nc(N)n2)cc1,0.43,-1.6
COc1ccc(Nc2cccc(Cl)c2)c(C(=O)O)c1,-1.1,x
CCOC(=O)CSC(=O)c1cccnc1Oc1ccccc1,0.62,x
COc1cc(C2CC(=O)Oc3c2c(=O)n(C)c2ccccc32)ccc1O (centres undefined),2.9,2.2
Cc1c(NS(=O)(=O)c2cnc[nH]2)c(-n2cnnc2)nn1C,-0.91,0.99
O=S1(=O)C[C@H](N2CCN(c3ccc(F)cc3)CC2)[C@@H](S(=O)(=O)c2cccs2)C1,-1.3,-0.61
N#Cc1ccccc1NCn1cncn1,-1,x
CC1(C)CCC2=C(O1)c1ccccc1C(=O)C2=O,-3.4,1.8
Cc1ccc(C(=O)OCc2cc(=O)n3ccsc3n2)cc1,x,0.51
Cc1ccc(-c2noc(COc3cc(C)cc(C)c3C)n2)cc1,0.01,x
O=C1CCc2cc(S(=O)(=O)N3CCC(C(=O)NC4CCCc5ccccc54)CC3)ccc2N1 (centres undefined),-1.3,1.2
Cc1ccc(C)c(-c2nc(C)sc2CC(=O)O)c1,-1.3,0.04
COC(=O)c1[nH]c2ccc(C)cc2c1NC(=O)CN1CCOCC1,-1.3,x
COc1ccc(C(CC(=O)c2cccs2)SCCO)cc1OC (centres undefined),-2.2,0.7
CN1C(=O)c2ccccc2C(C(=O)O)C1c1cccc(Br)c1 (centres undefined),-0.57,x
CCCCc1cnc2c(c1SCC(=O)Nc1cc(C)on1)c(=O)n(C)c(=O)n2C,x,1.3
O=C(OC1=CN(Cc2ccccc2)S(=O)(=O)c2ccccc21)c1ccc(F)cc1,-2.2,1.1
COc1ccc(N2C(=O)c3cccnc3C2Nc2cccc(Cl)c2)cc1 (centres undefined),x,0.39
Cc1nn2c(=O)cc(COC(=O)COc3ccccc3F)nc2s1,x,-2
COC(=O)C1CCN(C(=O)C2c3ccccc3Oc3ccccc32)CC1,-2.1,1.8
O=C(CN1C(=O)c2cccnc2Sc2ccccc21)NCC1CCCO1 (centres undefined),x,-0.18
CCOC(=O)N1CCN(C(=O)c2cc(S(=O)(=O)N3CCCC3)c[nH]2)CC1,x,2.3
COc1ccc(S(=O)(=O)N2CC(=O)Nc3ccccc32)cc1Cl,-1.4,-0.53
O=C(Nc1cc(F)ccc1F)C1CCCN1S(=O)(=O)c1cccc2cccnc12 (centres undefined),-2.6,x
CC(=O)N1N=C(c2ccc(C)cc2)OC1c1cccnc1 (centres undefined),0.61,1.6
CCC(C)NC(=O)c1cnn2c1NC(c1ccc(Br)cc1)CC2C(F)(F)F (centres undefined),-0.08,0.62
O=C1/C(=C\c2cccs2)N2CCC1CC2,-1.1,x

Other compounds follow:
Molecule,CDC25B CDK2 inh,HIV TAR-Tat
Cn1c(=O)c2cn(-c3ccc(F)cc3)cc2n(C)c1=O,-0.83,x
Cc1nc(N(C)C)cc(N2CCN(S(=O)(=O)c3ccc(C)c(C)c3)CC2)n1,-1.9,0.19
O=C(NCc1ccc2c(c1)OCO2)c1ccc(-c2ccc(S(=O)(=O)N3CCCC3)cc2)cc1,x,2
Cc1cc(C)cc(NC(=O)c2noc3c2CCc2sccc2-3)c1,x,1.8
c1ccc(N2CCN(CCCNc3nn4nnnc4c4ccccc34)CC2)cc1,-2.2,1.7
CC(C)(C)C1CCc2c(sc(NC(=O)c3cccc(Br)c3)c2C(N)=O)C1 (centres undefined),-1.6,-0.06
O=C(NC1CCCC1)c1ccc2nc(N3CCCCC3)sc2c1,-1.6,-0.88
S=c1[nH]nc(NCc2cccs2)s1,-3.3,x

Compounds were not picked by outcome (roughly 0.87% active in at least one column).
